VDR inhibitor – vitamin D3 receptor (human) inhibition; 0.93% of 400,000 active; Potency, µM, for the others: max response, negative = inhibition, most hits filed as inhibitors; VDR-SRC2-3 peptide fluorescence polarization, 2 h; P11473; AID 504847; active = well fitted inhibition curve with a large enough effect; inconclusive = small, poorly fitted or top-dose-only effect, or another doubt; inactive = no such curve, though single readings can be large or run the other way; also: series mostly up to about 120 µM
Target sequence (P11473 whole entry, looked up): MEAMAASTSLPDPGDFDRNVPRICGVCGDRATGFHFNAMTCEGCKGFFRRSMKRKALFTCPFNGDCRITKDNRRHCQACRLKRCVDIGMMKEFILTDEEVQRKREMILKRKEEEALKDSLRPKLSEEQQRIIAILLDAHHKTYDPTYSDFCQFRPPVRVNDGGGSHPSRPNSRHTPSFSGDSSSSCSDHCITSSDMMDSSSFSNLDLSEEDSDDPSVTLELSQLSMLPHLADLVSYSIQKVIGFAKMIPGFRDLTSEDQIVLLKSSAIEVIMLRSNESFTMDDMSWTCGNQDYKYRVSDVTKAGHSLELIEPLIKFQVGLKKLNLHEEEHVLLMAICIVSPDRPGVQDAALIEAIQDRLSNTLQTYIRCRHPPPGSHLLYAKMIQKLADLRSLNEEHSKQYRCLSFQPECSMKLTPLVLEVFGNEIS
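Signal is fluorescence polarization, reporting how far test compounds block the interaction of VDR with the SRC2-3 coregulator peptide after a 2 h room-temperature incubation.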
Active calls of the source: *; ? = inconclusive; & = joins results of further samples; [ ] = remark or other dose. % is scaled to controls: 0 for no effect and ±100 for the full control effect; potency is read from the fitted curve at half-maximal effect.

entry	mol	VDR inhibitor
1	CC(C)C[C@H](NC(=O)[C@@H]1CCC(=O)N1)C(=O)N[C@@H](Cc1ccc(O)cc1)C(=O)N[C@@H](CCC(=O)O)C(=O)N[C@@H](CC(N)=O)C(=O)N[C@@H](CCCCN)C(=O)N1CCC[C@H]1C(=O)N[C@@H](CCCN=C(N)N)C(=O)N[C@@H](CCCN=C(N)N)C(=O)N1CCC[C@H]1C(=O)N[C@@H](Cc1ccc(O)cc1)C(=O)O	1%
2	COc1ccc(-c2csc(NC(=O)c3cc(C)oc3C)n2)cc1OC	14%
3	COc1ccc(S(=O)(=O)N2CCN(C(=O)c3cc4c(s3)CCC4)CC2)cc1	-16%
4	Cc1cc(C)c(S(=O)(=O)NCC(c2ccco2)N2CCN(c3ccccc3)CC2)c(C)c1 (stereo not given)	16%
5	Cc1ccc(-c2cc(C(=O)O)n[nH]2)s1	9%
6	CC1Sc2ccc(S(=O)(=O)N(C)Cc3ccccc3)cc2NC1=O (stereo not given)	-19%
7	O=C(NCCc1ccccc1Cl)C1CCC(=O)N(Cc2cccc(C(F)(F)F)c2)C1 (stereo not given)	10%
8	CN1C(C(=O)Nc2ccc(F)cc2F)=CC(c2cccs2)=NS1(=O)=O	4%&16%
9	CCCn1c(SCC(=O)NC2CC2)nnc1-c1ccccn1	-7%
10	Cc1cc(C)n(-c2nc3ccccc3c(=O)n2OCC(C)C)n1	-8%
11	CCOC(=O)N1CCN(C(=O)c2ccc(CNS(=O)(=O)c3ccc(C)cc3)cc2)CC1	5%
12	CCCc1nnc(NC(=O)CCC(=O)N2CCN(Cc3ccc(Cl)cc3)CC2)s1	-9%
13	CCN(CC)CCNC(=O)C1c2ccccc2C(=O)N(C)C1c1cn(C)c2ccccc12 (stereo not given)	-1%
14	COc1cc(OC)c2c(=O)c(-c3ccccc3)c(C)oc2c1OC	11%
15	COc1cccc(Cn2c(=O)c(-c3ccc(Cl)cc3)nc3cncnc32)c1	0%
16	COc1ccc(C)cc1NC(=O)CSc1nc(=O)n(Cc2ccco2)c2c1CCC2	-7%
17	O=S(=O)(c1ccccc1)N1CCC2(CCCN(c3ccccc3)C2)CC1	-12%
18	O=C(NCC1CCS(=O)(=O)C1)Oc1ccccc1 (stereo not given)	5%
19	O=C(/C=C/c1ccnc2ccccc12)c1cccs1	?
20	COc1cc(C(=O)Oc2ccccc2/C=N/NC(=O)c2ccc(Cl)cc2Cl)cc(OC)c1OC	-13%
21	COc1ccccc1Cn1c(CNS(=O)(=O)c2ccc(Cl)s2)nc2cccnc21	-4%
22	Cc1ccccc1/C=C1\C(=O)Nc2ccc(F)cc21	-6%
23	O=C(Nc1ccc(F)c(F)c1)C1CCCN(S(=O)(=O)c2cnc[nH]2)C1 (stereo not given)	-28%
24	CCC(=O)C1=C(c2cccc([N+](=O)[O-])c2)N(C(=O)CC)n2c(nnc2C2CCCCC2)S1	6%
25	CCCC(c1nnnn1CS(=O)(=O)c1ccc(C)cc1)N1CCN(c2ccc(F)cc2)CC1 (stereo not given)	-20%
26	C=CCOc1ccc(/C=C2\SC(=S)N(NS(=O)(=O)c3ccc(C)cc3)C2=O)cc1	-15%
27	Cc1cccc(NC(=O)c2ccc3c(=O)n(CC4CCCO4)c(=S)[nH]c3c2)c1 (stereo not given)	-1%
28	COc1ccc(OCc2cc(C(=O)N3CCCC(CO)C3)no2)c2ccccc12 (stereo not given)	-12%
29	COc1ccccc1C(=O)NC(C(=O)NCCc1nc2ccccc2[nH]1)=C(C)C	-10%
30	COc1ccc(-c2nc(CSCC(=O)N3CCC(C(N)=O)CC3)c(C)o2)cc1OC	-13%
31	O=C(Cc1cccs1)Nc1ccc([N+](=O)[O-])cc1	-5%
32	c1ccc(-c2csc(NC3CCCCC3)n2)cc1	-5%
33	CCN(C(=O)CSc1ccc2ccccc2n1)C1CCCCC1	-24%
34	O=C(NNC(=S)Nc1ccccc1Cl)c1ccncc1	-4%
35	Cc1nn(-c2ccccc2)c(C)c1/C=C/C(=O)OCC(=O)N(C)C1CCS(=O)(=O)C1 (stereo not given)	-5%
36	Cc1ncc(CCl)c2c1OC(C)(C)OC2	5%
37	COc1ccc(NC(=O)c2oc3ccccc3c2NC(=O)Cc2ccc(F)cc2)c(OC)c1	17%
38	Cc1cccc(CS(=O)(=O)c2ncc(Cl)c(C(=O)NCc3ccc4c(c3)OCO4)n2)c1	?
39	COc1ccc(S(=O)(=O)NCCS(=O)(=O)N2CCN(c3ccccc3F)CC2)cc1	9%
40	O=C(COC(=O)c1ccccn1)Nc1nc(-c2cccc([N+](=O)[O-])c2)cs1	1%

Arranged by length of the SMILES (smallest number first): part of the list above.
entry	mol	VDR inhibitor
36	Cc1ncc(CCl)c2c1OC(C)(C)OC2	5%
32	c1ccc(-c2csc(NC3CCCCC3)n2)cc1	-5%
34	O=C(NNC(=S)Nc1ccccc1Cl)c1ccncc1	-4%
29	COc1ccccc1C(=O)NC(C(=O)NCCc1nc2ccccc2[nH]1)=C(C)C	-10%
30	COc1ccc(-c2nc(CSCC(=O)N3CCC(C(N)=O)CC3)c(C)o2)cc1OC	-13%
35	Cc1nn(-c2ccccc2)c(C)c1/C=C/C(=O)OCC(=O)N(C)C1CCS(=O)(=O)C1 (stereo not given)	-5%

5 of the entries above in order of the VDR inhibitor value, highest first.
entry	mol	VDR inhibitor
39	COc1ccc(S(=O)(=O)NCCS(=O)(=O)N2CCN(c3ccccc3F)CC2)cc1	9%
18	O=C(NCC1CCS(=O)(=O)C1)Oc1ccccc1 (stereo not given)	5%
40	O=C(COC(=O)c1ccccn1)Nc1nc(-c2cccc([N+](=O)[O-])c2)cs1	1%
16	COc1ccc(C)cc1NC(=O)CSc1nc(=O)n(Cc2ccco2)c2c1CCC2	-7%
3	COc1ccc(S(=O)(=O)N2CCN(C(=O)c3cc4c(s3)CCC4)CC2)cc1	-16%

Next compounds follow.
entry	mol	VDR inhibitor
41	O=C1C2C3c4ccccc4C(c4ccccc43)C2C(=O)N1/N=C/c1cccc(O)c1 (stereo not given)	8%
42	CCCNc1cc(=S)nc(N)[nH]1	-6%
43	COC(=O)c1c(NC(=O)Cn2cc([N+](=O)[O-])cn2)sc2c1CCC2	10%
44	O=C(c1cccc(F)c1)N1CCC2(CC1)CN(c1cccc(-c3ccccc3)c1)C2	-16%
45	N#CC1CCN(c2ncccc2[N+](=O)[O-])CC1	4%
46	Cc1noc(C)c1-c1nccc(NCCN2CCOCC2)n1	-6%
47	CCOC(=O)c1c(NC(=O)/C=C/C(=O)O)sc(C)c1-c1ccc(F)cc1	22µM*
48	CCOC(=O)C(=Nc1ccc(Cl)cc1)NO	19%
49	COc1cccc(NC(=O)N2CCCC2C(=O)NCc2ccc(Cl)cc2)c1 (stereo not given)	-20%
50	O=S(=O)(N/N=C1/CCCc2ccccc21)c1ccc(Br)cc1	8%
51	COc1ccc(OC)c(/C=N/Nc2nc(C)cc(=O)[nH]2)c1	3%
52	Cc1ccc(C)c(SCc2noc(C(=O)NC(C)C)c2C(=O)O)c1	-14%
53	N#Cc1c(-c2ccccc2)[nH]c(=S)[nH]c1=O	4%
54	CC(C)Oc1ccc(N2C(=O)c3ccccc3C2=O)cc1	-8%
55	Cc1ccc(S(=O)(=O)N2CCC(C(=O)NCC3CC3)CC2)cc1	20%
56	Cc1nc2ccccc2n1CCC(=O)Nc1cccc(F)c1	5%
57	O=C(NC(NCc1cccnc1)C(Cl)(Cl)Cl)c1cccc2ccccc12 (stereo not given)	4%
58	Cc1occc1-c1nnc(SCC(=O)NC2CC2)n1C(C)C	-1%
59	C#CCOCCOCCOCCNc1nc(N2CCN(C(=O)CCCCCCCCCCNC(=O)Cn3cc(CCCCCN)nn3)CC2)nc(N2CCN(C(=O)CCCCCCCCCCNC(=O)[C@H](CO)n3cc(CCCSC)nn3)CC2)n1	34%[activator]
60	Cc1cccc(C(=O)Nc2ccc3c(c2)C(=O)N(CC(C)C)C3=O)c1	-14%
61	O=C(CSc1nncs1)Nc1ccc(S(=O)(=O)N2CCCC2)cc1	3%
62	COc1cc(C2NC(=O)NC(C)=C2C(=O)OCC2CCCCC2)ccc1O (stereo not given)	8%
63	CCOC(=O)Cc1nnc(NC(=O)COc2ccc(OC)cc2)s1	-6%
64	O=C(NCC1CC1)c1ccc2nc(-c3ccoc3)c(-c3ccoc3)nc2c1	-7%
65	COCCCNC(=O)Cn1c(=O)nc(-c2ccccc2)c2ccccc21	9%
66	O=C(CSc1nnc(-c2ccco2)n1Cc1ccco1)Nc1ccccc1	-11%
67	O=C(NCc1ccco1)c1cc2c(s1)CCCCC2	-18%
68	CCOc1ccc(S(=O)(=O)Nc2cccc(C)c2)c2cccnc12	-2%&-12%
69	CCCCCN(C(=O)CCC(=O)OCc1cccc(C(F)(F)F)c1)c1c(N)n(CCCC)c(=O)[nH]c1=O	-7%
70	C=C(C)CSCc1nc2ccccc2[nH]1	-1%
71	COc1ccccc1-n1cnnc1SCC(=O)Nc1cc(C(C)(C)C)nn1-c1ccccc1	-3%
72	COc1ccc(N2CCN(C(=O)c3c4c(nc5ccccc35)C(=O)N(C3CCCCC3)C4)CC2)cc1	13%
73	O=C(Nc1nccs1)c1cccc(NC(=O)c2ccco2)c1	13%
74	CSCCC(NC(=O)c1cc(S(=O)(=O)N2CCOCC2)ccc1F)c1nc2ccccc2[nH]1 (stereo not given)	6%
75	O=C(CN1C(=O)NC2(CCCCC2)C1=O)Nc1ccc(Cl)c(S(=O)(=O)N2CCOCC2)c1	5%
76	CCSc1nnc(NC(=O)CSc2nnc(-c3c[nH]c4ccccc34)n2C)s1	23%
77	COCCNC(=S)NN=C1CCCCC1	-5%
78	COCCn1c(=O)c(-c2cccc(C#N)c2)nc2cnc(OCc3ccccc3)nc21	-23%
79	Cc1c2c(nc3nnnn13)CCCC2	4%
80	Cc1ccccc1C(c1c(C)n(C)n(-c2ccccc2)c1=O)c1c(C)n(C)n(-c2ccccc2)c1=O	6%
81	Cc1cc(C(=O)NNC(=O)c2cccc(C(F)(F)F)c2)no1	-15%
82	O=C1Nc2ccc(S(=O)(=O)N3CCCC3)c3cccc1c23	-15%
83	COc1ccc(-c2cc(C(=O)N(C)CCc3ccc(OC)c(OC)c3)c3ccccc3n2)cc1	1%
84	COc1ccc(/C=C2/SC(=S)N(CCCC(=O)Nc3ccc(O)cc3)C2=O)cc1OC	4%
85	CCC(CC)C(=O)Nc1cccc(C(=O)Nc2nnc(C)s2)c1	-2%
86	COc1ccc(NC(=O)CN(C)C(=O)C2(c3ccccc3)CCCC2)cc1	6%
87	O=S(=O)(c1cccc2nonc12)N1CCCCC1	-7%
88	C[C@H](CO)N1C[C@H](C)[C@H](CN(C)Cc2ccncc2)Oc2ccc(NC(=O)Nc3ccc(C(F)(F)F)cc3)cc2CC1=O	-1%
89	COc1ccc(NC(=O)c2c(C)cc(=O)oc2C)c(OC)c1	10%
90	CCC(C)NC(=O)c1ccc2c(=O)n3c(nc2c1)CCCCC3 (stereo not given)	-1%
91	CCn1c(SCC(=O)N(C)c2c(N)n(Cc3ccccc3)c(=O)[nH]c2=O)nc2ccccc21	2%
92	O=[N+]([O-])c1cc([N+](=O)[O-])c(Oc2cccc3ccccc23)cc1NN1CCCCC1	0%
93	Cc1cc(C)cc(NC(=O)c2oc3ccccc3c2COc2ccccc2)c1	9%
94	CCOC(=O)CN1C(=O)C(CC)Oc2ccccc21 (stereo not given)	-5%
95	CCC(=O)Nc1cccc(C2=NN(c3ccccc3)C(c3ccc(OC)cc3)C2)c1 (stereo not given)	-3%
96	Cc1ccccc1C1CC(=O)Oc2ccc(C(C)(C)C)cc21 (stereo not given)	-4%
97	CC1(C)CC(=O)C2=C(C1)OC(N)=C(C#N)C2c1ccoc1 (stereo not given)	5%
98	CC(=O)c1ccc(NC(=O)COC(=O)CCN2C(=O)c3cccc([N+](=O)[O-])c3C2=O)cc1	-1%
99	C=CCNc1cnn(-c2ccc(C)cc2)c(=O)c1Cl	1%
100	CCCN(CCO)Cc1ccc(Br)cc1	5%

Next part.
entry	mol	VDR inhibitor
101	CCOC(=O)N1CCC(N2CCN(S(=O)(=O)c3ccc(OC)cc3)CC2)CC1	-2%
102	CC1(C)Cc2c(sc(NC(=O)Nc3ccccc3)c2C(N)=O)CO1	-20%
103	COc1ccc(NC(=O)C2=CC(c3ccco3)=NS(=O)(=O)N2C)cc1OC	-10%&13%
104	Cc1ccc(Cl)cc1N1CCN(C(=O)Cc2c(C(=O)O)[nH]c3ccc(Cl)cc23)CC1	-25%
105	O=C(NCCCN1CCCC1=O)Nc1ccc(Br)cc1Cl	0%
106	COC(=O)c1cccc(NC(=O)NC(=O)c2ccc(Cl)cc2)c1	8%
107	COC(=O)c1ccc(C2NCCc3cc(OC)c(OC)cc32)cc1 (stereo not given)	-7%
108	Cc1cccc(C(C)C)c1NC(=O)COC(=O)CCN1C(=O)C2CC=CCC2C1=O (stereo not given)	-2%
109	O=C(Nc1cccc(S(=O)(=O)NC2=NCCC2)c1)C1CCCCC1	0%
110	NC(=S)Nc1cccc(-c2n[nH]c(=S)o2)c1	2%
111	Cc1cccc(C)c1-n1c(C)cc(/C=C2\C(=O)NN(c3ccccc3)C2=O)c1C	-2%
112	C/C(=N\OCc1ccc(C#N)cc1)c1ccc(S(=O)(=O)N(C)C)cc1	12%
113	COc1cccc(NC(=O)CSc2nnc(-c3ccoc3C)n2C)c1	26%
114	CC1(C2(O)CCCCC2)NCCc2ccccc21 (stereo not given)	5%

Screening data deposited in PubChem BioAssay by National Center for Advancing Translational Sciences (NCATS).

Some of the compounds tested; the hit share may differ from the screen's.
